# Screening results deposited in PubChem BioAssay by several laboratories.
# VCAM-1 imaging – inhibitors of TNFa-induced VCAM-1 surface display, imaging, high-content imaging, pooled HUVEC, TNFa stimulus (AID 456) | 10,000 compounds, 0.2% hits | HUVEC TNFa-induced VCAM-1 surface expression, immunofluorescence imaging; numbers were filed only for top-ranked candidate wells | inhibition, % at 5 µM, or IC50 in µM where a hit was titrated;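 active = top tenth filtered wells with inhibition above zero that passed visual or statistical confirmation; inactive = the rest, including hits rejected on review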;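 also: 0% = stimulated vehicle wells and 100% = unstimulated cells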
# VCAM-1 up imaging – enhancers of VCAM-1 display on endothelial cells, imaging, high-content imaging, pooled HUVEC, TNFa stimulus (AID 457); Pooled HUVEC, TNFa-induced VCAM-1 immunofluorescence imaging; hits of this screen are not shown here; calls only; 10,000 compounds, 0.2% hits;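 active = a top-ranked rise in VCAM-1 staining upheld on image or statistical review; inactive = the rest, including candidates rejected on review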;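 also: compounds tested at 5 µM in the well; cells exposed to compound for 24 hours before fixing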
# FPR binder – human FPR ligand, with FPRL1 counter-screen; FPR-expressing cells, fluorescent ligand binding, flow cytometry; inhibition, %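 (tested at 6.7 µM)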; 24,000 compounds, 0.74% hits; AID 440;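 also: 0% = buffer wells and 100% = receptor blocker peptide wells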
# Target sequence (P21462 whole entry, looked up): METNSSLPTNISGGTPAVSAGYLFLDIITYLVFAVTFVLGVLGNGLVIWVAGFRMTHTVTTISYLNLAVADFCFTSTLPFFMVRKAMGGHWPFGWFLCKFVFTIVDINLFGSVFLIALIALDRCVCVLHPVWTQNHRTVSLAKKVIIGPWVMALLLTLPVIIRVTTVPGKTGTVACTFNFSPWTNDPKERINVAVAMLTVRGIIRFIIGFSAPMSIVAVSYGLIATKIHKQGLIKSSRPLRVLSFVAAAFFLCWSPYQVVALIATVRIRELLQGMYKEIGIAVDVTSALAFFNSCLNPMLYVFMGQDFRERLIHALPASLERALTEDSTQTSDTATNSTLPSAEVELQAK
# VCAM-1 inhibition – suppression of endothelial VCAM-1 upregulation – cell-based, plate reader, pooled HUVEC, TNFa stimulus (AID 454). HUVEC TNFa-induced VCAM-1 surface immunofluorescence, plate reader; numbers were filed only for top-ranked candidate wells. inhibition, % at 5 µM. 10,000 compounds, 0.2% hits;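 active = compound among top-ranked inhibitors of TNF-induced VCAM-1 adhesion protein staining, with the hit upheld by image or statistical review; inactive = the rest, including hits rejected on review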;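 also: 0% = TNFa with vehicle and 100% = cells without TNFa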
# FPRL1 ligand – ligands of human FPRL1, also counter-screen for FPR ligands; FPRL1-expressing cells, fluorescent ligand binding inhibition, flow cytometry; inhibition, %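 (tested at 6.7 µM)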; 24,000 compounds, 0.3% hits; AID 441;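 also: 0% = buffer alone and 100% = receptor blocker peptide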
# Target sequence (P25090 whole entry, looked up): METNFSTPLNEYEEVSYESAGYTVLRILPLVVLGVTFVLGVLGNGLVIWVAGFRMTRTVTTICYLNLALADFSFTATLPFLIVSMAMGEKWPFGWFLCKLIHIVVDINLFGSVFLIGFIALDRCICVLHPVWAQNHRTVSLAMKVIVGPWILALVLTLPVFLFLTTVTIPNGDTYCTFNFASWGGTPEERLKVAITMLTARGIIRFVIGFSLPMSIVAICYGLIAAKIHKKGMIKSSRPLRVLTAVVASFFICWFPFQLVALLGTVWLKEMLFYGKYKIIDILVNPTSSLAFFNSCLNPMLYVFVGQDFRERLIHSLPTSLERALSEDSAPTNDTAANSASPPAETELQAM
# Numbers without * were called inactive; i = inactive; nt = no result given.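 The calls were made as follows, unless noted: active = mean above 30%; inconclusive = self-fluorescent; inactive = the rest.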 The list is partial, so the mix of outcomes need not match the whole.
SMILES,VCAM-1 imaging,VCAM-1 up imaging,FPR binder,VCAM-1 inhibition,FPRL1 ligand
Cc1csc(NC(=O)C2CCC(C)(C(=O)O)C2(C)C)n1 (centres undefined),nt,nt,-16,nt,-4
O=C(CCc1nc(-c2ccccc2F)no1)NCCN1CCc2ccccc2C1,nt,nt,-5,nt,7
CCc1noc(N)c1C(=O)Nc1ccc(F)c(Cl)c1,nt,nt,11,nt,2
CC(Oc1ccc(Cl)cc1Cl)C(=O)Nc1ncccn1 (centres undefined),i,i,-6,i,-2
CCOc1ccc(Br)cc1C1NC(=O)c2c(sc3c2CCN(C)C3)N1 (centres undefined),nt,nt,-5,nt,4
CCOC(=O)C(NC(=O)CC)(Nc1sc2c(c1C(=O)OC)CCN(C)C2)C(F)(F)F (centres undefined),nt,nt,2,nt,-4
COCCN(CC(=O)NC1CCCCC1)C(=O)CSc1nc2ccccc2o1,i,i,0,i,7
CCOC(=O)N1CCN(c2c(NCC3CCN(Cc4cccc(C)c4)CC3)c(=O)c2=O)CC1,i,i,-3,i,-3
COC(=O)c1ccc(C2NC(C(=O)O)CS2)cc1 (centres undefined),i,i,-3,i,-5
CCOc1ccc(-c2cc(NC(=O)Cn3ncc4c3-c3ccccc3OC4)on2)cc1OCC,nt,nt,7,nt,-2
Cn1cccc1Cc1nnc(SCC(=O)NCc2ccccc2Cl)n1-c1ccc(F)cc1,nt,nt,3,nt,-7
COc1ccc(C2=NOC(C(=O)NCc3ccc(F)cc3)C2)cc1 (centres undefined),nt,nt,-7,nt,10
COC(=O)c1ccc(COc2ccc(C3C4=C(CCCC4=O)Nc4onc(C)c43)cc2)cc1 (centres undefined),i,i,-8,i,3
CC1(C)CC(=O)C2=C(C1)NC(=O)CC2c1cc2c(cc1Br)OCO2 (centres undefined),nt,nt,1,nt,-3
Cc1cc(C(=O)Nc2cccnc2)no1,i,i,7,i,12
CC(C)C(=O)N(c1ccc(F)cc1)C1C=CS(=O)(=O)C1 (centres undefined),nt,nt,0,nt,-1
CCOc1ccc(CCNC(=O)C2CCCN(c3nn4c(=O)cc(C)nc4s3)C2)cc1 (centres undefined),nt,nt,6,nt,1
O=C(Nc1ncnc2sc3c(c12)CCCCC3)c1ccco1,i,i,0,i,-1
COc1cc(C2C(C(=O)c3ccc(C)o3)=C(O)C(=O)N2c2cc(C)on2)cc(OC)c1OC (centres undefined),nt,nt,-7,nt,2
CCn1c(C(=O)N2CCC(C(=O)NCCCSC3CCCCC3)CC2)cc2sccc21,nt,nt,9,nt,-1
CCOc1ccc(N(C)S(=O)(=O)c2ccc3[nH]cc(C(=O)NCC4CCCO4)c(=O)c3c2)cc1 (centres undefined),i,i,2,i,-4
O=C(Cn1cc2c(n1)CCCC2)NC1CCCCCC1,nt,nt,-3,nt,-1
CCOc1ncccc1C(=O)Nc1ccc2c(C)cc(=O)oc2c1,i,i,-1,i,0
O=C(NCc1cccnc1)c1ccc(CS(=O)(=O)Cc2ccc(Cl)cc2)o1,nt,nt,-2,nt,7
COc1nc(N)nc(CC(=O)C2CC2)n1,nt,nt,1,nt,-4

# The list goes on:
SMILES,VCAM-1 imaging,VCAM-1 up imaging,FPR binder,VCAM-1 inhibition,FPRL1 ligand
CN(CC(=O)NC1CCCc2ccccc21)S(=O)(=O)c1ccc2c(c1)c(=O)n(C)c(=O)n2C (centres undefined),nt,nt,5,nt,1
COc1ccc(-c2c(N)nnc3c2[nH]c2ccccc23)cc1OC,nt,nt,6,nt,-3
CC1CCN(CCCNC(=O)Cc2c(C(=O)O)n(C)c3ccccc23)CC1,nt,nt,-5,nt,8
CCOC(=O)C1CCN(c2c(NC3CCCc4ccccc43)c(=O)c2=O)CC1 (centres undefined),i,i,1,i,-3
COc1ccc(-n2nc(C(=O)N3CCN(c4ccc(F)cc4)CC3)c3ccccc3c2=O)c(OC)c1,nt,nt,5,nt,2
O=C(CN1C(=O)CCSc2ccccc21)Nc1ccc2c(c1)OCCO2,nt,nt,-1,nt,-7
CCOc1ccc(N/C(SC)=C(/C#N)C(N)=O)cc1,nt,nt,3,nt,-1
COc1cccc(-n2c(Cc3cc(=O)[nH]c(=O)[nH]3)nnc2SC(C)C)c1,nt,nt,4,nt,0
CC1=C(C(=O)NC(C)C)C2(CCC(C)CC2)OC1=O (centres undefined),nt,nt,8,nt,2
NC(=O)C1CCN(C(=S)c2cccs2)CC1,i,i,10,i,0
CCN1CCN(Cc2ccc(NC(=O)CC3Oc4ccc(C)cc4NC3=O)cc2)CC1 (centres undefined),nt,nt,-4,nt,-3
O=C(NC1CCCCCC1)c1c(F)c(F)c(F)c(F)c1F,i,i,-4,i,-11
CC1(C)CC(=O)C(C=Nc2ccc(O)cc2)=C(O)C1,nt,nt,-2,nt,12
CCN1CCc2c(C#N)c(N3CCOCC3)nc(NCc3ccccc3)c2C1,i,i,0,i,-2
COc1cccc(NC(=O)Cc2cn(C)c3ccccc23)c1,nt,nt,-4,nt,-5
Nc1ccc(-c2nc3c(Cl)c(N)ccc3[nH]2)cc1,nt,nt,0,nt,1
O=C(NC1CCCC1)C1CCN(S(=O)(=O)N2CCCCC2)CC1,nt,nt,0,nt,1
CC1Cc2cc(/C(O)=C3/C(=O)C(=O)N(CCCn4ccnc4)C3c3ccncc3)ccc2O1 (centres undefined),nt,nt,0,nt,-1
CCC(C(=O)OCC(=O)Nc1c(C)n(C)n(-c2ccccc2)c1=O)c1ccccc1 (centres undefined),i,i,-10,i,-3
COc1ccccc1NC(=O)Cn1nnc(C(=O)Nc2ccccc2)c1N,nt,nt,-5,nt,0
O=C(C1=C(O)C(=O)N(CCOCCO)C1c1cccs1)c1cccs1 (centres undefined),nt,nt,71*,nt,28
CC(=O)OC1CC(C)(C)N(OC(=O)CCCN2C(=O)c3ccccc3C2=O)C(C)(C)C1,nt,nt,25,nt,-13
O=C(c1ccccc1)c1cccn1CC(=O)N1CCN(C2CCCCC2)CC1,nt,nt,-2,nt,-6
CCOC(=O)c1cc(C)n(CCCN2CCOCC2)c1C,i,i,-2,i,2
CC12CC(NC(=O)N1CCc1ccccc1)c1ccccc1O2 (centres undefined),nt,nt,5,nt,7

# Record cards, as listed above:
# Listed for CN(CC(=O)NC1CCCc2ccccc21)S(=O)(=O)c1ccc2c(c1)c(=O)n(C)c(=O)n2C (centres undefined) : VCAM-1 imaging = nt; VCAM-1 up imaging = nt; FPR binder = 5; VCAM-1 inhibition = nt; FPRL1 ligand = 1
# Listed for CC12CC(NC(=O)N1CCc1ccccc1)c1ccccc1O2 (centres undefined) : VCAM-1 imaging = nt; VCAM-1 up imaging = nt; FPR binder = 5; VCAM-1 inhibition = nt; FPRL1 ligand = 7

# The results go on.
SMILES,VCAM-1 imaging,VCAM-1 up imaging,FPR binder,VCAM-1 inhibition,FPRL1 ligand
CCCOc1ccccc1C1CC(=O)NC(C)=C1C(=O)OCC(C)C (centres undefined),nt,nt,0,nt,-5
CSc1nc2ccc3nc(NC(=O)c4cccs4)sc3c2s1,nt,nt,6,nt,-7
COc1cc(NC(=O)c2cc(-c3cccc(O)c3)on2)cc(OC)c1OC,nt,nt,2,nt,-4
COC(=O)C1=C(C)Nc2ncnn2C1c1ccco1 (centres undefined),i,i,0,i,1
O=C1c2ccncc2C(=O)N1C1CCCCC1,nt,nt,1,nt,-5
Cn1cnc2c1c(=O)n(Cc1ccccc1)c(=O)n2C,nt,nt,-6,nt,3
Cc1noc(C)c1C(=O)Nc1sc(C)c(C)c1C#N,i,i,-2,i,-10
CC(C)[C@H](NC(=O)NCc1ccc(Cl)cc1)C(=O)O,i,i,-1,i,-4
CC1=Nn2c(nnc2-c2ccccn2)SC1,i,i,3,i,5
COc1ccc2ccccc2c1C1CC(=O)N2CN(Cc3ccco3)CSC2=C1C#N (centres undefined),nt,nt,1,nt,-3
COc1ccc(C2C(=O)N(C3CCCCCC3)CC(=O)N2Cc2ccccc2)cc1OC (centres undefined),nt,nt,-1,nt,-5
CCOc1cc(C2C(C(=O)OC(C)C)=C(C)N=C3SCCC(=O)N32)ccc1OC(C)=O (centres undefined),i,i,-4,i,-3
CCOC(=O)N1CCC(NS(=O)(=O)c2cc(Br)cc3c2N(C(=O)CC)CC3)CC1,nt,nt,-1,nt,6
C=CCn1c(SCc2ccc(C#N)cc2)nnc1-c1cccc(Cl)c1,i,i,7,i,1
COc1ccc(OCc2ccc(-c3nc4ccccc4c(=O)n3N)o2)cc1,nt,nt,-1,nt,5
COc1ccc(-c2cc(C(F)(F)F)nc(SCCC(=O)N3CCOCC3)n2)cc1,i,i,1,i,3
O=C(Nc1ccc(F)cc1)N1CCN(c2nc3ccccc3s2)CC1,nt,nt,6,nt,-2
O=C(NCc1cccnc1)/C(=N\O)c1ccccc1,i,i,1,i,0
Cc1noc(C)c1S(=O)(=O)N1CCC(C(=O)N2CCN(c3ccc(Cl)cc3)CC2)CC1,nt,nt,2,nt,-3
CCCS(=O)(=O)N1CCCC(C(=O)NCCCN(C)Cc2ccccc2)C1 (centres undefined),nt,nt,1,nt,1
Cc1onc(-c2ccccc2Cl)c1C(=O)Nc1ccc(-n2nncc2-c2ccco2)cc1,nt,nt,3,nt,0
COc1ccccc1-c1ccc(Nc2cccc(C(C)=O)c2)nn1,i,i,6,i,2
COc1cc(OC)cc(-c2nc(N)n[nH]2)c1,i,i,-2,i,-2
CN(C1CCCCC1)S(=O)(=O)c1ccc(NC(=O)C2CCCCC2C(=O)O)cc1 (centres undefined),nt,nt,-2,nt,-2
CC(=O)NCC(=O)N(Cc1ccco1)C1(C(=O)NC2CCCCC2)CCCCC1,i,i,-4,i,0

# Following part
SMILES,VCAM-1 imaging,VCAM-1 up imaging,FPR binder,VCAM-1 inhibition,FPRL1 ligand
Cc1ccccc1Cn1nnc(C(=O)Nc2cccc(C)c2C)c1N,nt,nt,-1,nt,-3
O=C(CSc1nc2c(c(=O)n1-c1ccc(Br)cc1)SCC2)NCc1ccco1,nt,nt,-6,nt,9
Clc1cc(Cl)c2nc(N3CCOCC3)sc2c1,nt,nt,-1,nt,1
Cc1cccc(-c2cc3nc(C)cc(NCCCN(C)C)n3n2)c1,i,i,6,i,0
CCOC(=O)c1ccc(N2C(=O)CC(N(C)CCc3ccc(OC)c(OC)c3)C2=O)cc1 (centres undefined),i,i,-6,i,0
Cc1ccc(NC(=O)NCC(c2cccnc2)N2CCOCC2)cc1 (centres undefined),nt,nt,-2,nt,-1
CCCn1c(NCc2ccc3c(c2)OCO3)nc2ccccc21,i,i,-4,i,-4
COc1ccc(C2CC(c3cc(OC)ccc3OC)n3nnnc3N2)cc1 (centres undefined),nt,nt,-1,nt,1
COc1ccc(CCNC(=O)c2ccncc2)cc1OC,i,i,-3,i,0
Cc1ccc(NC(=O)N2CCC(c3nc4c(nnn4Cc4cccc(Cl)c4)c(=O)[nH]3)CC2)cc1,i,i,-2,i,-4
O=C(CSc1nnc2ccccn12)c1ccc2c(c1)OCCO2,nt,nt,0,nt,0
Cn1cc(SCC(=O)Nc2nc3ccccc3s2)c2ccccc21,nt,nt,-3,nt,-8
COc1ccc(NC(=O)c2cnc3sccn3c2=O)cc1,nt,nt,1,nt,4
O=C(Nc1cccnc1)c1scc2c1OCCO2,nt,nt,-7,nt,20
COc1ccc(N2CCN(C(=O)Cc3ccc(-n4c(=O)[nH]c5ccccc5c4=O)cc3)CC2)cc1,i,i,-5,i,3
CCOC(=O)N1CCC(NC(=O)CSCc2cnn(-c3ccccc3)c2-n2cccc2)CC1,nt,nt,6,nt,-10
CCn1c(=NC(=O)CSC(C)=O)sc2cc(F)ccc21,nt,nt,-2,nt,0
COc1ccc(-c2cc3nc(C)c(CCC(=O)N4CCCCC4)c(C)n3n2)c(OC)c1,nt,nt,-6,nt,-3
FC(F)(F)C(F)(F)C(F)(F)c1nnc2ccc(N3CCOCC3)nn12,i,i,0,i,3
OCCn1c(-c2ccc3c(c2)OCO3)csc1=Nc1ccccc1,i,i,-5,i,0
COc1ccc(C(=O)n2cnc(N)n2)cc1,nt,nt,-5,nt,0
N#Cc1c(NC(=O)COC(=O)C2CC3C=CC2C3)oc(-c2ccccc2)c1-c1ccccc1 (centres undefined),i,i,-7,i,-4

# Reprinted at random: 3 entries already listed, in no set order.
SMILES,VCAM-1 imaging,VCAM-1 up imaging,FPR binder,VCAM-1 inhibition,FPRL1 ligand
COc1ccc(C2CC(c3cc(OC)ccc3OC)n3nnnc3N2)cc1 (centres undefined),nt,nt,-1,nt,1
FC(F)(F)C(F)(F)C(F)(F)c1nnc2ccc(N3CCOCC3)nn12,i,i,0,i,3
Cc1cccc(-c2cc3nc(C)cc(NCCCN(C)C)n3n2)c1,i,i,6,i,0
